A647 fluor = qHTS Assay for Spectroscopic Profiling in A647 Spectral Region; max dye-equivalent concentration, M; AID 592, 2007; Compound fluorescence, A647 channel (570/671 nm), Tris buffer; 59,000 tested, under 10 active; active means above 1 µM dye equivalent; inconclusive means 0.1 to 1 µM; inactive means 0.1 µM or less;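 further: values scaled relative to a standard on each plate; highest value over a series up to 38 µM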
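Fluorescence read (570 nm ex, 671 nm em) after 15 min RT incubation of compounds in 100 mM Tris buffer, pH 8.0; values expressed as dye-equivalent concentration against a six-point A647 standard series on each plate.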
AID923 = qHTS Assay for Allosteric/Competitive Inhibitors of Caspase-1: Spectroscopic Profiling in AFC Spectral Region. Potency, µM (top dose mostly 57.5 µM), for inactives: at the top dose fluorescence increase, usual class: activators. 75,000 compounds, 1.1% hits. AID 923, 2007. compound fluorescence, AFC spectral region (405/520 nm); almost no hit is shown here; active means well fitted activation curve with a large enough effect; inconclusive means small, poorly fitted or top-dose-only effect;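 further: potency means the concentration at half of the fitted maximal effect; 0% is about no effect; scaled to a free AFC standard on each plate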
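Baseline compound fluorescence (AFC region, 405 nm ex/520 nm em) taken from the intercept of kinetic reads with 50 nM caspase-1 and 5 uM Ac-WEHD-AFC; normalized to an on-plate AFC standard curve; compounds titrated up to 57 uM.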
Resorufin autofl = qHTS Assay for Spectroscopic Profiling in Resorufin Spectral Region. Compound fluorescence, resorufin region 547/598 nm, buffer; hits give high values. 59,000 compounds, 0.04% hits. max dye-equivalent concentration, M. AID 588, 2007; active = above 10 nM dye equivalent; inconclusive = 1 to 10 nM; inactive = 1 nM or less; a few of its hits are not listed in these tables; further: highest value over a series up to 38 µM
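Compounds in 100 mM Tris buffer, pH 8.0, incubated 15 min at room temperature, then read with 547 nm excitation and 598 nm emission filters. Fluorescence was converted to dye-equivalent concentration using an on-plate six-point resorufin standard curve.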
TSHR ag = qHTS Assay for Agonists of the Thyroid Stimulating Hormone Receptor; Thyrotropin receptor (Homo sapiens), P16473; HEK293-CNG-TSHR cells (CNG channel as cAMP sensor), membrane potential dye, cAMP; Potency, µM (top dose mostly 57.1 µM), for inactives: at the highest dose activation, usual class: activators; 73,000 compounds, 0.48% hits; active = well fitted activation curve of enough size with the parental cells flat; inconclusive = any curve in the parental cells; inactive = parental cells flat and receptor cells flat or falling; further: potency means the concentration at half of the fitted maximal effect; % of control where 0% means no effect; weak receptor curves with flat parental cells got no call and are not listed
Target sequence (P16473 whole entry, looked up): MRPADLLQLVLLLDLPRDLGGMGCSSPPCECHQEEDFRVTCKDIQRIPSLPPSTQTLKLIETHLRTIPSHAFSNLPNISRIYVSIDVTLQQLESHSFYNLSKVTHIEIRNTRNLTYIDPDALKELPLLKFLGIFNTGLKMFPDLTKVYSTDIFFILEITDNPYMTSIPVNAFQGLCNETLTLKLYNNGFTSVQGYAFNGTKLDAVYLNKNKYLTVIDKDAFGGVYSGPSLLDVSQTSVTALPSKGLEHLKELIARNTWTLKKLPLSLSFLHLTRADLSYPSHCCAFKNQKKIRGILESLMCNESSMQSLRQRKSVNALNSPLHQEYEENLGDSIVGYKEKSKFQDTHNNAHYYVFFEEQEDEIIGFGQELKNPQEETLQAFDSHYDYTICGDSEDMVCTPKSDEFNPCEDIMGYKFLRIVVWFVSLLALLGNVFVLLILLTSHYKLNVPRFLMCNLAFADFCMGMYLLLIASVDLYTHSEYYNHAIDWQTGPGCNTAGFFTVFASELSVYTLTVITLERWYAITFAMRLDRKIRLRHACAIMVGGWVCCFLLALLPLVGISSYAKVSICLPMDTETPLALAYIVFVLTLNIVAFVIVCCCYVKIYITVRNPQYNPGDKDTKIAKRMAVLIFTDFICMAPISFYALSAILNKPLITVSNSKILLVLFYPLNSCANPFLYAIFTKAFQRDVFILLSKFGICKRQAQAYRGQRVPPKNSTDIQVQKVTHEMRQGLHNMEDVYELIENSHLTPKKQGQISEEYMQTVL
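cAMP rise detected as CNG-channel membrane depolarization by fluorescent dye (emission 590 nm), 30 min after compound, following 60 min dye loading containing 100 uM RO 20-1724 at room temperature. Cells: TSHR/CNG HEK 293, with parental CNG HEK 293 as control.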
A488 fluor = qHTS Assay for Spectroscopic Profiling in A488 Spectral Region; compound autofluorescence, A488 spectral region, dye equivalency; hits give high values; max dye equivalency, M; 59,000 compounds, 0.1% hits; active = above 10 nM dye equivalent; inconclusive = 1 to 10 nM; inactive = 1 nM or less; about half of its hits are not listed in these tables;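 further: highest value over a series up to 38 µM; compound alone in buffer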
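Intrinsic compound fluorescence is measured in 100 mM Tris buffer at pH 8.0 following 15 min incubation at room temperature. Intensities at 480 nm excitation/540 nm emission are calibrated to an on-plate A488 concentration series, giving dye-equivalent concentrations.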
* hit, by the source's call; i = inactive; ? = inconclusive; / = no result given; [ ] = remark or other dose. Only part of the results is shown (hit frequency here may not be typical).

SMILES	A647 fluor	AID923	Resorufin autofl	TSHR ag	A488 fluor
COC(=O)CN1C(=O)C(O)(CC(=O)c2ccc(C)cc2)c2cc(Br)ccc21 (configuration not stated)	/	2.3%	/	-9.6%	/
Cc1cc(NC(=O)C2CC(c3ccc(F)cc3)=NO2)n(-c2ccccc2)n1 (configuration not stated)	/	0.8%	/	-4.2%	/
COc1cccc(Oc2coc3c(CN4CCOCC4)c(O)ccc3c2=O)c1	7.5e-09	20.9%	i	4.9%	i
Cc1csc2ncc(C(=O)NCc3ccc4c(c3)OCO4)c(=O)n12	/	2.7%	/	1.7%[11.4 µM]	/
CCOc1ccc2oc(C(=O)OCC(=O)NC(=O)NC3CCCC3)c(C)c2c1	1.95e-08	0.9%	i	?	i
O=C(O)COc1ccccc1O	/	2.4%	/	-4.1%[11.4 µM]	/
COC(=O)c1ccc(COC(=O)c2[nH]c(C)c(C(C)=O)c2C)o1	1e-09	-1.6%	i	21.3%	i
C(=N/Nc1nnc2c(n1)[nH]c1ccccc12)/c1cccnc1	1e-09	1.0%[11.5 µM]	i	?	i
CCCOc1cc(CC(=O)NCc2ccco2)ccc1OC	6.3e-09	1.1%	i	-1.7%	i
COc1ccccc1N(CCC#N)C(=O)CSc1nc(-c2ccccc2)cn1N	6.8e-09	0.0%	i	2.8%[11.4 µM]	i
COc1ccc(Br)cc1CNC(=O)C1CCCN(c2nc3ccccc3o2)C1 (configuration not stated)	1.02e-08	-2.6%	i	?	i
COC(=O)/C=C/C1c2ccccc2C(OC)C1C (configuration not stated)	/	2.4%[11.5 µM]	/	-2.1%[11.4 µM]	/
Cn1c(=O)c2sccc2n2c(CCCC(=O)NCc3ccc4c(c3)OCO4)nnc12	2.73e-08	0.7%	i	?	i
Cc1ccc(Cn2c(CN3CCOCC3)nc3c2c(=O)[nH]c(=O)n3C)cc1	9.6e-09	-0.8%	i	-1.7%	i
c1ccc(-c2nnc(-c3cccc(-c4nnc(-c5ccccc5)o4)c3)o2)cc1	9e-09	-2.0%	i	18.5%	i
O=C(Nc1cccc(F)c1)c1cc(S(=O)(=O)N2CCC(C(=O)O)CC2)ccc1F	2.33e-08	-0.3%	i	4.6%	i
COc1ccc(-c2nc(CS(=O)CC(=O)NCC3CCCO3)c(C)o2)cc1 (configuration not stated)	/	-0.7%	/	2.1%	/
COc1cccc(OCCCCN2CCCCC2)c1	1.95e-08	-1.6%	i	3.6%	i
CCn1c(SCCC#N)nnc1-c1ccncc1	7.9e-09	-1.2%	i	10.3%	i
O=S(=O)(O)c1nc2ccccc2n1CCOc1ccccc1	1.41e-08	-1.4%	i	2.4%	i
CCCn1c(=N)n(CCOc2ccc(OC)cc2)c2ccccc21	1.5e-09	3.4%	i	10.1%	i
CCN(CC)c1nc(N)c2c(N)nc3c(c2c1C#N)CC(c1ccccc1)O3 (configuration not stated)	1e-09	9.3%	i	?	i
O=C(CSc1nnc(-c2ccco2)n1-c1ccccc1)NCCc1ccccc1	/	0.1%	/	?	/
COc1ccc(N2C(N)=C(C#N)C(c3cccnc3)C3=C2CC(C)(C)CC3=O)cc1 (configuration not stated)	2.31e-08	3.2%	i	5.4%	i

Not a retest: 13 of the compounds above.
SMILES	A647 fluor	AID923	Resorufin autofl	TSHR ag	A488 fluor
COC(=O)/C=C/C1c2ccccc2C(OC)C1C (configuration not stated)	/	2.4%[11.5 µM]	/	-2.1%[11.4 µM]	/
Cn1c(=O)c2sccc2n2c(CCCC(=O)NCc3ccc4c(c3)OCO4)nnc12	2.73e-08	0.7%	i	?	i
Cc1ccc(Cn2c(CN3CCOCC3)nc3c2c(=O)[nH]c(=O)n3C)cc1	9.6e-09	-0.8%	i	-1.7%	i
c1ccc(-c2nnc(-c3cccc(-c4nnc(-c5ccccc5)o4)c3)o2)cc1	9e-09	-2.0%	i	18.5%	i
O=C(Nc1cccc(F)c1)c1cc(S(=O)(=O)N2CCC(C(=O)O)CC2)ccc1F	2.33e-08	-0.3%	i	4.6%	i
COc1ccc(-c2nc(CS(=O)CC(=O)NCC3CCCO3)c(C)o2)cc1 (configuration not stated)	/	-0.7%	/	2.1%	/
COc1cccc(OCCCCN2CCCCC2)c1	1.95e-08	-1.6%	i	3.6%	i
CCn1c(SCCC#N)nnc1-c1ccncc1	7.9e-09	-1.2%	i	10.3%	i
O=S(=O)(O)c1nc2ccccc2n1CCOc1ccccc1	1.41e-08	-1.4%	i	2.4%	i
CCCn1c(=N)n(CCOc2ccc(OC)cc2)c2ccccc21	1.5e-09	3.4%	i	10.1%	i
CCN(CC)c1nc(N)c2c(N)nc3c(c2c1C#N)CC(c1ccccc1)O3 (configuration not stated)	1e-09	9.3%	i	?	i
O=C(CSc1nnc(-c2ccco2)n1-c1ccccc1)NCCc1ccccc1	/	0.1%	/	?	/
COc1ccc(N2C(N)=C(C#N)C(c3cccnc3)C3=C2CC(C)(C)CC3=O)cc1 (configuration not stated)	2.31e-08	3.2%	i	5.4%	i

Remaining list, next part
SMILES	A647 fluor	AID923	Resorufin autofl	TSHR ag	A488 fluor
COc1cc2c(cc1OC)-c1cc(OCCN3CCOCC3)nc(=O)n1CC2	7.8e-09	6.5%	i	11.5%	i
Cc1cc(NS(=O)(=O)c2ccc(NC(=O)CCN3C(=O)c4ccccc4C3=O)cc2)no1	1e-09	-1.6%	i	1.0%	i
COC(=O)c1ccc(C(=O)OC)c(NC(=O)CCc2ccc(C)o2)c1	2.62e-08	9.4%	i	?	i
Cc1cc(C)nc(NC(=O)NS(=O)(=O)N2CCCCCC2)n1	/	1.4%	/	-5.2%	/
CC(=O)Cc1nsc(NC(=O)c2csc3c2CCCC3)n1	7.6e-09	0.8%	i	-3.3%	i
O=C(Nc1ccc(Cl)cc1)Nc1ccccc1C(=O)NCc1ccco1	1e-09	-1.3%	i	13.0%	i
COC(=O)CCC(=O)OC	/	1.0%	/	?	/
O=C(c1ccco1)N1CCn2c1nc1ccccc12	2.98e-08	-0.2%	i	2.6%	i
CCOCC(O)CS(=O)(=O)c1ccccn1 (configuration not stated)	/	0.5%	/	1.9%[11.4 µM]	/
COc1ccc(C(=O)/C=C/Nc2c(C)n(C)n(-c3ccccc3)c2=O)cc1OC	/	0.6%	/	10.0%	/
CC(=O)NC1CC2CCCC(C1)N2S(=O)(=O)c1ccccc1 (configuration not stated)	3.8e-09	-0.3%	i	-0.5%	i
CC(C)CCOC(=O)C1[C@H]2C(=O)N(Cc3cccs3)C[C@]23C=C[C@H]1O3 (some centres not stated)	4.95e-08	-0.2%	i	-5.1%	i
CCn1c(SCC(=O)NCC2CCCO2)nnc1-c1c[nH]c2ccccc12 (configuration not stated)	1e-09	-0.6%	i	15.1%	i
CCOc1ccc(NS(=O)(=O)c2ccc3c(c2)oc(=O)n3C)cc1	2.23e-08	-0.3%	i	0.9%	i
CC(C)c1cc(C(=O)O)on1	2.1e-09	0.2%	i	-1.4%	i
COc1ccc(CC(=O)OCN2C(=O)c3ccccc3C2=O)cc1	4.7e-09	/	i	/	i

Some of these compounds in order of the A647 fluor value, largest number first.
structure,A647 fluor
COc1ccc(Br)cc1CNC(=O)C1CCCN(c2nc3ccccc3o2)C1 (configuration not stated),1.02e-08
CC(=O)Cc1nsc(NC(=O)c2csc3c2CCCC3)n1,7.6e-09
Cc1cc(NS(=O)(=O)c2ccc(NC(=O)CCN3C(=O)c4ccccc4C3=O)cc2)no1,1e-09

Next section
SMILES	A647 fluor	AID923	Resorufin autofl	TSHR ag	A488 fluor
O=C1CCCc2nc3nc4ccccc4n3cc21	7.3e-09	3.4%	i	2.9%	i
O=C(O)c1ccccc1C(=O)NCC(O)COCC1CC=CCC1 (configuration not stated)	/	1.7%	/	4.5%[11.4 µM]	/
Cc1cccc(C)c1[N+](=O)[O-]	/	-0.7%	/	-0.4%	/
CCOc1cc(C2C(C(=O)c3ccccc3)=C(C(=O)OC)Nc3nnnn32)ccc1O (configuration not stated)	2.53e-08	1.2%	i	0.8%	i
N#Cc1nc(-c2ccco2)oc1N1CCc2ccccc2C1	9.5e-09	2.1%	i	?	i
Nc1nc(SCC(=O)OCc2ccccc2)[nH]c(=O)c1NC(=O)c1ccco1	/	-4.2%	/	28.7%	/
CCCCC[C@H](O)/C=C/[C@H]1C=CC(=O)[C@@H]1C/C=C\CCCC(=O)O	5.5e-09	/	i	/	i
CCOC(=O)CSc1nc2ccccc2c(=O)n1CC1CCC(C(=O)NCc2ccco2)CC1 (configuration not stated)	4e-09	1.7%	i	?	i
N#Cc1ccc(CSc2nnc(-c3cccs3)n2-c2ccccc2)cc1	8e-09	-0.7%	i	3.5%	i
COc1ccc(C)cc1S(=O)(=O)NC1CCCCC1	/	17.8%	/	17.1%	/
Cc1ccc(-n2c(N)c(C(=O)N3CCOCC3)sc2=S)cc1	2e-09	-1.5%	i	-8.7%	i
COc1ccc(N/C(=N\c2nc(C)cc(C)n2)NC(C)=O)cc1OC	1e-09	1.0%	i	?	i
C=CCNc1nc(NCc2ccco2)nc(OCC)n1	2.56e-08	-1.0%	i	-0.7%	i
COc1ccc(N2CCN(Cc3cc(=O)oc4cc5c(cc34)CCCC5)CC2)cc1	1e-09	-1.0%	i	-7.0%	i
Cc1cc(C)c(C#N)c(Nc2ccccc2Cl)n1	1e-09	1.1%	i	?	i
CCOC(=O)C1CCCN(C(=O)Cc2ccc(OC)c(OC)c2)C1 (configuration not stated)	2.09e-08	-1.2%	i	11.8%	i
O=C(Oc1ccccc1)N1CCC[C@@]2(CCN(c3ccccc3)C2)C1	1e-09	2.6%	i	0.6%	i
Cc1cccc2nc(Cn3c(=O)n(CCCC(=O)NCc4ccco4)c(=O)c4ccccc43)cc(=O)n12	3.75e-08	1.8%	i	/	i
O=C(OCn1nnc2ccccc2c1=O)c1cn(-c2ccccc2)nc1-c1cccnc1	1e-09	0.5%	i	-1.4%	i
CCOC(=O)c1c(NC(=O)c2cccs2)sc2c1CC(C)(C)OC2	2.74e-08	11.6%	i	?	i
COc1cccc(CNC(=O)c2cc3oc4ccccc4c3n2C)c1OC	2.82e-08	0.2%	i	/	i
O=C(/C=C\C=C/c1ccc2c(c1)OCO2)N1CCCCC1	6.6e-09	-1.0%[25.7 µM]	i	?	i
CC1CCN(Cc2c(C#N)c3ccccc3n2C)CC1	4.44e-08	1.1%	i	25.2%	i
COc1ccccc1N1CCN(S(=O)(=O)c2c(C)ccc3nsnc23)CC1	1e-09	2.6%	i	24.2%	i
CSc1nc2sc3c(c2c2nnnn12)CC(C)(C)OC3	4.88e-08	/	i	/	i
CCOC(=O)N1CCC(N2C(=O)c3ccc(C(=O)O)cc3C2=O)CC1	1e-09	0.8%	i	?	i
O=C(O)c1n[nH]c2c1CCCCC2	3.89e-08	-0.1%	i	/	i
Nc1nc2n(n1)C(c1cccc(Br)c1)CC(c1ccccc1)N2 (configuration not stated)	/	12.1%	/	-0.5%	/

Assay outcomes as filed in PubChem.
